Screening data: PubChem BioAssay, National Center for Advancing Translational Sciences (NCATS)
2A StopGo: lowers the luciferase signal of an FMDV 2A StopGo reporter; Potency, µM (highest dose often 57.9 µM), for inactives: top-dose signal change, negative = less light; 410,000 compounds, 1.2% hits; human cells with a luciferase reporter of 2A StopGo recoding; control for the full effect not named in the record; active = well fitted falling curve with a large enough effect; inconclusive = small, poorly fitted or top-dose-only effect; inactive = no such curve, though single readings can be large or run the other way; tested in HEK293T cells; note: % is set by controls: 0 for no effect and ±100 for the full control effect; nearly all actives have a fitted effect of over 45% in size; luciferase light after 4 h
SARS PLP yeast: SARS-CoV PLP inhibition in yeast; Potency, µM (top dose mostly 32.9 µM), for the others: at the highest dose activity, positive = growth rescue; 330,000 compounds, 0.19% hits; S. cerevisiae expressing SARS-CoV PLpro, growth rescue; control for the full effect not named in the record; note: 0% is about no effect; nearly all actives have a fitted effect of over 55% in size; growth read by luminescence after 48 h
MARV entry inh: Marburg virus entry inhibition; AID 540276; Marburg virus pseudotyped entry inhibition, cell reporter; control for the full effect not named in the record; about a third of the inactives were read at about 46 µM; 300,000 compounds, 1.8% hits; Potency, µM (highest dose often 37.8 µM), inactives show at the top dose activity change, negative = inhibition, hits mostly inhibitors; active = well fitted inhibition curve with a large enough effect; inconclusive = small, poorly fitted or top-dose-only effect, or effect the other way; inactive = flat fitted curve, though single readings scatter; tested in HEK293 cells; about a fifth of its hits are not listed in these tables; note: % is set by controls: 0 for no effect and ±100 for the full control effect; luciferase read-out
Cruzain noTriton: cruzain (T. cruzi) inhibition without detergent; P25779; purified cruzain, Z-FR-AMC fluorescence, no detergent; Potency, µM, without a hit: max response, negative = inhibition, hits mostly inhibitors; 200,000 compounds, 2.3% hits; AID 1476; active = well fitted curve in the direction sought with a large enough effect; inconclusive = small, poorly fitted or top-dose-only effect, or another doubt; inactive = no such curve, though single readings can be large; an effect the other way counts as inactive or inconclusive;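 note: plate controls were enzyme without inhibitor for no effect and buffer without enzyme for full effect; nearly all actives have a fitted effect of over 40% in size; top concentration of the series not given in the record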
Target sequence (P25779 123-467 limits assumed): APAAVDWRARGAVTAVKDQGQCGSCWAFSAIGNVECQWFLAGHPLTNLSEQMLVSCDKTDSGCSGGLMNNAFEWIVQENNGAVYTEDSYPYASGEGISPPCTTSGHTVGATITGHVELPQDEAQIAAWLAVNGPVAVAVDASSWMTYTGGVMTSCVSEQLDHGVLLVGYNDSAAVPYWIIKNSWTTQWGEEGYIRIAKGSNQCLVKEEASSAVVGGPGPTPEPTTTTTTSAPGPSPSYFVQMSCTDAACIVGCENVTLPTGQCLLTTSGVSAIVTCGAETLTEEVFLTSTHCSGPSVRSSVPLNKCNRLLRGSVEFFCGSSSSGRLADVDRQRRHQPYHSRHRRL
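Detergent-free condition (0.00005% Triton X-100) in acetate buffer pH 5.5 with DTT. 1.5 nM enzyme and compound were pre-mixed 15 min, then 2 uM Z-FR-AMC substrate added; reaction progress from fluorescence change between first and third reads (60 s).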
RE007 growth inh: less growth of the S. pombe RE007 Vpr strain. S. pombe RE007 Vpr strain, BacTiter-Glo ATP luminescence, 24 h; control for the full effect not named in the record. Potency, µM (top dose mostly 92.2 µM), without a hit: at the highest dose activity change, negative = less growth. 360,000 compounds, 0.21% hits; active = well fitted falling curve with a large enough effect; inconclusive = small, poorly fitted or top-dose-only effect; inactive = no such curve, though single readings can be large or run the other way;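 note: % is set by controls: 0 for no effect and ±100 for the full control effect; nearly all actives have a fitted effect of over 50% in size; the assay follows cell death caused by Vpr and the record does not say whether a fall means rescue or toxicity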
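Fission yeast RE007 carrying one integrated HIV-1 vpr copy, seeded at OD 0.01 in PMG+AL medium with 23 nL pinned compound. Grown 24 h at 30 degrees; viability read by BacTiter-Glo luminescence after 5 min.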
Cruzain Triton: inhibitors of Trypanosoma cruzi cruzain with detergent. 200,000 compounds, 0.43% hits. P25779. Potency, µM, without a hit: max response, negative = inhibition, actives largely listed as inhibitors. purified cruzain, Z-FR-AMC fluorescence, 0.01% Triton; active = well fitted curve in the direction sought with a large enough effect; inconclusive = small, poorly fitted or top-dose-only effect, or another doubt; inactive = no such curve, though single readings can be large; an effect the other way counts as inactive or inconclusive;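 note: plate controls were neutral wells for no effect and buffer without enzyme for full effect; nearly all actives have a fitted effect of over 40% in size; top concentration of the series not given in the record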
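Sodium acetate buffer (100 mM, pH 5.5) containing 5 mM DTT and 0.01% Triton X-100 hosted 1.5 nM cruzain and test compound for 15 min at room temperature. Cleavage of 2 uM Z-FR-AMC was then tracked by fluorescence.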
NS1 inh: inhibitors of influenza NS1 protein function; Potency, µM (doses to about 46.1 µM), for the others: top-dose activity, positive = more growth; 270,000 compounds, 0.4% hits; S. cerevisiae slowed by influenza A NS1, growth recovery by OD600; note: actives are rising curves; nearly all actives have a fitted effect of over 50% in size
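Growth recovery, yeast-based: influenza A NS1 expressed in S. cerevisiae causes slow growth, and suppressors are detected by OD600. The parent strain without NS1 is used as positive control.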
Lassa entry inh: blocks Lassa virus binding to or entry into cells; 300,000 compounds, 1.2% hits; Potency, µM (doses to about 37.9 µM), for inactives: at the top dose activity change, negative = inhibition, actives largely listed as inhibitors; Lassa virus pseudotype entry inhibition, cell reporter; control for the full effect not named in the record; active means well fitted inhibition curve with a large enough effect; inconclusive means small, poorly fitted or top-dose-only effect, or effect the other way; inactive means flat fitted curve, though single readings scatter; tested in HEK293 cells; note: % is set by controls: 0 for no effect and ±100 for the full control effect; nearly all actives have a fitted effect of over 50% in size; luciferase read-out
* marks the source's active call; other numbers are inactive results; ? = inconclusive; . = not tested or not shown; & = joins results of further samples; [ ] = another dose, or the depositor's remark. Unless noted, calls come from the whole dose curve; as a rule, active means well fitted rising curve with a large enough effect; inconclusive means small, poorly fitted or top-dose-only effect; inactive means no such curve, though single readings can be large or run the other way. Potency is the fitted concentration of half-maximal effect.

SMILES | 2A StopGo | SARS PLP yeast | MARV entry inh | Cruzain noTriton | RE007 growth inh | Cruzain Triton | NS1 inh | Lassa entry inh
CC(Oc1ccc2c(-c3ccccc3)cc(=O)oc2c1)C(=O)NCCN1CCOCC1 (stereo not given) | -24% | ? | . | . | -4% | . | -10% | .
CCCN1C2CCCC1CC(NC(=O)c1cc(OC)cc(OC)c1)C2 (stereo not given) | -7% | -3% | . | . | -18% | . | -9% | .
Cc1ccc(NC(=O)CN2C(=O)CCc3cc(S(=O)(=O)N4CCOCC4)ccc32)c(C)c1 | -15% | . | . | -1% | . | 0.5% | . | 4%[46.1 µM]
O=C(OCc1ccc(F)cc1)c1cc(S(=O)(=O)N2CCCCC2)ccc1N1CCOCC1 | ? | 0% | 4% | . | -10% | . | . | -39%
CCOc1ccc2nc(NC(=O)c3cccnc3)sc2c1 | 11% | -4% | ? | -16% | -8% | -8.7% | -7% | ?
CCOc1cc(NC(=O)C2CCCO2)c(OCC)cc1NC(C)=O (stereo not given) | 14% | 3% | 13% | 9% | 1% | -0.8% | 2% | 14%
CCOC(=O)Cc1c(C)nc2c(C#N)c(C)nn2c1C | -8% | 1% | -2% | 8% | -4% | -5.2% | -6% | 13%
Cc1cccc(N2CC(C(=O)OCC(=O)Nc3sccc3C(N)=O)CC2=O)c1C (stereo not given) | -10% | -8% | 1%[46.1 µM] | . | 27% | . | . | 5%[46.1 µM]
O=C(c1ccc(S(=O)(=O)NCC2CCCO2)cc1)N1CCN(c2ccccc2)CC1 (stereo not given) | -4% | 1% | -15%[46.1 µM] | . | 8% | . | -3% | -7%[46.1 µM]
CCc1ccc(NC(=O)CN(c2ccc(OC)cc2)S(=O)(=O)c2c(C)nn(C)c2C)cc1 | -8% | -4% | . | . | 12% | . | -19% | .
COc1ccc(Cc2nc(-c3ccccc3)no2)cc1 | 46%[activator] | -20% | ? | -10% | -23% | 1.3% | -20% | 9%
C[C@@H]1CN=C2N(CCNC(=O)CCC3CCCCC3)[C@H](Cc3ccc(O)cc3)CN21 | -16% | 23% | . | . | -23% | . | -4% | .
CCC(=O)N(C)CCc1cc2c(c(OC)c1/C=N/NC(=O)[C@H]1C[C@@H]1c1ccccc1)OCO2 | -20% | -1% | -28%[46.1 µM] | . | 0% | . | -13% | ?
O=C1C2C3C=CC(C3)C2C(=O)N1CNc1ccccc1 (stereo not given) | 20% | -4% | 14% | 11% | 7% | 4.2% | 1% | 2%
O=C(Cn1c(C(F)(F)F)nc2ccccc21)c1ccccc1 | . | 4% | 2% | -3% | 8% | -0.8% | 10% | -13%
COc1cccc(OC)c1C(=O)NC(=S)Nc1ccc2c(c1)Cc1ccccc1-2 | 4% | 3% | ? | 16µM* | -6% | -24% | 1% | 3%
CC1CCCCN1C(=O)CSc1nnc(-c2ccccc2O)o1 (stereo not given) | 34%[activator] | 0% | ? | . | 3% | . | -2% | ?
N/C(=N\OC(=O)CCCOc1ccc(Cl)cc1Cl)c1ccccn1 | -1% | -11% | -2% | . | -29% | . | -43% | 9%
COc1ccc(-c2oc(/N=C/N3CCOCC3)c(C#N)c2-c2ccc(OC)cc2)cc1 | -12% | -4% | 6% | ? | -2% | -2.6% | -1% | 0%
CNC(=O)NC(=O)C(OC(=O)c1cccc(S(=O)(=O)N2CCCCC2)c1)c1ccccc1 (stereo not given) | -6% | -14% | 4% | 9% | 3% | -3.9% | 4% | 9%
CN1CC(=O)N2C(c3ccc(Cl)cc3)c3[nH]c4ccccc4c3C[C@H]2C1=O (stereo not given in full) | 7% | 2% | . | . | 9% | . | 2% | .
O=S(=O)(c1ccc2nc(N3CCN(c4cccc(Cl)c4)CC3)ccc2c1)N1CCCCC1 | -13% | . | . | -14% | . | 2.0% | . | ?
COc1ccc2c(CNCc3ccc(Cl)cc3)c(C(=O)O)n(Cc3ccccc3C)c2c1 | 5% | . | . | 1% | . | -2.8% | . | 26%[46.1 µM]
Nc1cc(C(=O)O)ccc1Nc1ccccc1 | 9% | -3% | 19% | -4% | 1% | -1.1% | 8% | 10%
Cc1ccc(C=Nc2ccccc2C#N)s1 | 28% | 6% | 1% | -1% | -4% | -4.9% | 16% | 3%

New compounds follow:
SMILES | 2A StopGo | SARS PLP yeast | MARV entry inh | Cruzain noTriton | RE007 growth inh | Cruzain Triton | NS1 inh | Lassa entry inh
Oc1ccc(-c2nc3ccccn3c2NCc2ccc3c(c2)OCO3)cc1 | ? | -2% | -6% | -5% | ? | -9.0% | -19% | -12%
CN(c1ccccc1)C(c1ccc(F)cc1)c1nnnn1C1CCCC1 (stereo not given) | -18% | 15% | -28% | -2% | -1% | 1.6% | -9% | 14%
CCN1CCN(C(c2ccccc2Cl)c2c(O)cc(C)n(CCOC)c2=O)CC1 (stereo not given) | -19% | . | . | -3% | . | 0.7% | . | -2%[46.1 µM]
C#CC[N+](C)(C)CCN1C(=O)C2C(c3ccccc3)C=CC(c3ccccc3)C2C1=O (stereo not given) | -2% | 1% | -8%[46.1 µM] | . | 4% | . | . | 4%
CCc1ccc(-n2nc(C)c3c(C)cc(=O)n(CC(=O)Nc4ccc(C(C)=O)cc4)c32)cc1 | -8% | . | . | -2% | . | -0.1% | . | 8%[46.1 µM]
CCOC(=O)c1cc2c(=O)n3ccccc3nc2n(CCOC)c1=NC(=O)C(C)(C)C | -18% | 7% | 2%&2% | ? | -5% | -14% | -18% | -1%
COc1ccc(OCCNC(=S)Nc2cccc3ccccc23)cc1 | -16% | -16% | -23% | -1% | -7% | -7.1% | -9% | -4%
CC(C)NC(=O)c1ccc2c(c1)N(Cc1ccccc1)C(=O)C(C)(C)O2 | -8% | -6% | -5%[46.1 µM] | . | -3% | . | 11% | -7%[46.1 µM]
CCN(CC)c1ccc(NC(=O)c2cc3c(OC)cccc3[nH]2)cc1 | -17% | 0% | ? | . | -13% | . | -8% | ?
O=C(c1cccc(N2C(=O)C3C4C=CC(C4)C3C2=O)c1)N1CCCCCC1 (stereo not given) | -2% | 1% | -5% | -9% | 5% | -0.5% | -10% | -12%
Cc1ccc(NC(=O)CN(Cc2ccccc2)S(=O)(=O)c2ccc3nc(C)sc3c2)c(C)c1 | -24% | . | . | -2% | . | -1.5% | . | ?
Cc1ccc(NC(=O)CC2=NC(=O)C(CC(=O)Nc3ccccc3F)S2)cc1 (stereo not given) | 32%[activator] | -1% | . | . | -12% | . | 1% | .
COc1ccc(C(=O)/C=C/Sc2nc3ccccc3o2)cc1 | ? | 0% | ? | . | 13% | . | -6% | -2%[46.1 µM]
N#Cc1ccc(NC2=NS(=O)(=O)c3ccccc32)cc1 | 70%[activator] | . | 25%[46.1 µM] | 9% | . | 2.9% | . | ?
CCOc1ccc(NS(=O)(=O)c2ccc(NC(=O)N3CCCC3)cc2)cc1 | -9% | . | . | 7% | . | -2.1% | . | 29%[46.1 µM]
Cc1sc(C2C(C#N)=C(N)N(c3ccc(Cl)cc3)C3=C2C(=O)CCC3)cc1CN1CCOCC1 (stereo not given) | -2% | . | . | 1% | . | -0.9% | . | ?
Cc1cccc(N2CCN(S(C)(=O)=O)CC2)c1C | 2% | -1% | -2%[46.1 µM] | -1% | -8% | -8.5% | -1% | -19%
O=[N+]([O-])c1cc(/C=N/n2c(-c3ccncc3)n[nH]c2=S)ccc1Cl | 13% | 2% | ? | . | 10% | . | -4% | -6%[46.1 µM]
COc1cccc(Nc2ncccc2C(=O)Nc2ccccc2)c1 | -14% | -22% | -18% | -2% | ? | -13% | -22% | 14%
CCn1c(CC(=O)Nc2ccc(F)cc2)nnc1SCC(=O)N1CCOCC1 | -13% | 3% | 0%[46.1 µM] | . | 7% | . | 2% | 6%
Cc1cccc(N(CC(O)CN2CCCC2)S(=O)(=O)c2ccccc2)c1 (stereo not given) | 22% | 1% | ? | . | -4% | . | -1% | 1%[46.1 µM]
COC(=O)c1ccc(C)c(NC(=O)CN(c2cc(OC)ccc2OC)S(C)(=O)=O)c1 | 8% | -5% | -7% | 1% | 3% | -1.0% | -2% | 7%
Cc1cccn2c(CNCCc3ccccn3)c(C(=O)N3CCOCC3)nc12 | 2% | 7% | . | . | -8% | . | 26% | .
C=CCn1c(SCC(=O)c2[nH]c(C)c(C(C)=O)c2C)nnc1-c1ccncc1 | -25% | -8% | 12% | 13% | 0% | -8.7% | 9% | -1%
Cc1cccc(OCC(=O)NCc2n[nH]c(=O)c3ccccc23)c1 | -13% | 1% | ? | . | 1% | . | . | 1%

Next compounds follow:
SMILES | 2A StopGo | SARS PLP yeast | MARV entry inh | Cruzain noTriton | RE007 growth inh | Cruzain Triton | NS1 inh | Lassa entry inh
O=C(CSc1ccc(-c2ccccc2)nn1)NC1CCCC1 | 0% | 12% | -12% | . | -8% | . | 3% | -1%
CS(=O)(=O)N(CC(O)Cn1c2ccccc2c2ccccc21)c1cccc2ccccc12 (stereo not given) | 0% | 9% | ? | 0% | -4% | 5.7% | 5% | ?
COc1ccc(C)cc1NC(=O)CSc1nnc(-c2ccc(Br)cc2)o1 | . | 8% | 22% | 5% | -3% | 0.7% | 4% | 0%
O=C(NC1CCCCC1)c1ccc(CS(=O)Cc2ccc(Cl)cc2)o1 (stereo not given) | 14% | 2% | . | . | 29% | . | -4% | .
Nc1nc(SCC(=O)NN(c2ccccc2)c2ccccc2)n[nH]1 | 5% | 17% | 9% | -2% | 11% | -0.9% | 7% | 2%[46.1 µM]
CN(C(=O)CSc1nc(C2CCCC2)nc2c1c(=O)n(C)c(=O)n2C)c1ccccc1 | ? | . | . | 9% | . | -1.3% | . | -27%[46.1 µM]
CC(=O)Nc1nc2ccc(C(=O)NCCOC(=O)C3CCCCC3)cc2s1 | -12% | 0% | 19% | . | 2% | . | 1% | 25%
COc1ccc(C(=O)Nc2cc(S(=O)(=O)N3CCCC3)ccc2Cl)cc1 | 0% | 0% | ? | . | 5% | . | . | ?
O=C(NCCCc1ccccn1)C1CCC(=O)N(Cc2cccc(F)c2)C1 (stereo not given) | -12% | 0% | . | . | 1% | . | 3% | .
